VACV E9 pol inh: vaccinia E9 polymerase processive synthesis inhibitors, primary screen, biochemical, absorbance; Vaccinia virus DNA polymerase (E9) processive complex; in vitro processive DNA synthesis, absorbance read-out; active compounds read low; some inactives read as strong as hits; normalized absorbance, % (no concentration beside the values); 46,000 compounds, 0.94% hits; AID 493162, 2011;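 active means replicate mean up to 90% and picked by the depositor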;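 further: 100% = median of the test wells of a plate; 100 nL library stock went into each well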
* marks the source's active call; other numbers are inactive results; & = joins results of further samples. Only part of the results is shown; the hit share may differ from the screen's.

SMILES	VACV E9 pol inh
Clc1cccc(Nc2nnc(-c3ccccc3)c3ccccc23)c1	93.8
CC(C)Oc1ccc(C(F)(F)F)cc1N	100.4
O=C(COc1cccc(NC(=O)c2ccccc2)c1)NCCOc1ccccc1	99.8
COC(=O)C1=C(C)N=C2SC(C)C(=O)N2C1c1ccc(C(C)C)cc1 (centres undefined)	100.2
COc1ccc(NC(=O)c2cn(-c3ccccc3)nc2-c2cccnc2)cc1	90.6
c1ccc2c(c1)sc1ccccc12	99.6
CCC1=Nc2ccc(Br)cc2C(c2ccccc2)N1CC(=O)NN (centres undefined)	98.4
CN(C)C(=S)SCN1CCCC1=O	100.4
O=C(Oc1ccc(Cl)c2cccnc12)c1ccco1	101.3
COc1cc(/C(O)=C(\C#N)c2nc3ccccc3s2)cc(OC)c1OC	100.4
O=C(NC(=S)NCC1COc2ccccc2O1)c1ccc(Cl)cc1 (centres undefined)	97.4
Oc1oc(-c2ccccc2)nc1C1=Nc2ccccc2CC1	105.2
CN(C)c1ccc(N=Cc2cccn2C)cc1	98.5
CC1=CS(=O)(=O)CC1Sc1n[nH]c(C)n1 (centres undefined)	98.1
O=C(NC1=NCCN1)c1c(Cl)cccc1Cl	108.1
Cc1ccn2c(NC(=O)C(C)(C)Oc3ccc(Cl)cc3)c(-c3ccc(F)cc3)nc2c1	107.5
Cc1cc(Cl)ccc1OCC(=O)OCC(=O)c1ccc(Cl)cc1	98.9
NNC(=O)CNc1ccc2c(c1)OCO2	93.1
CC1CC(C)CN(S(=O)(=O)c2ccc(F)c(C(=O)Nc3cccc(F)c3)c2)C1 (centres undefined)	96.3
CCN(CC)C(=S)Sc1ncnc2sc3c(c12)CCCC3	100.4
COCC(=O)NC(C)c1nc2ccccc2[nH]1 (centres undefined)	90.8
Oc1ccccc1-c1cc(C(F)(F)F)n(-c2ccccc2)n1	100.8
O=C(CSc1ccc(Cl)cc1)NCC1CCCO1 (centres undefined)	96.5
c1cnc2ccc(-c3ccc4ncccc4c3)cc2c1	99.1
CCOc1ccc(C2C(C#N)=C(SC)NC(=O)C2C(=O)OC)cc1 (centres undefined)	100.7
CC(=O)OCC(=O)[C@@]12OC3(CCCC3)O[C@@H]1CC1C3CCC4=CC(=O)C=C[C@]4(C)[C@@]3(F)[C@@H](O)C[C@@]12C (some centres undefined)	100.3
CCN=C1S/C(=C\c2cn(C(C)=O)nc2-c2ccccc2)C(=O)N1CC	99.6
Cc1cc(Cl)ccc1NC(=O)COC(=O)c1cccs1	105.7
O=C1CCCC2=C1C(c1ccc(Cl)cc1)c1c(ccc3ccccc13)N2 (centres undefined)	100.3
O=C(Nc1ccc(Br)cc1)C1(c2ccccc2)CCCC1	107.3
O=C(CSCc1cnn(-c2ccccc2)c1-n1cccc1)Nc1ccccc1Br	100.9
COc1ccc(-c2cn3cccnc3n2)cc1NC(=O)C(C)C	102.9
N#CCCC1CCCCCCCCCCC1O (centres undefined)	101.9
O=S(=O)(c1ccc(Cl)cc1)N(Cc1ccccn1)Cc1ccccn1	117.7
CCOc1ccc(CCNC(=O)Cc2noc3ccccc23)cc1	102.4
Cc1ccc(Cn2ncc3c(N4CCC(C)CC4)ncnc32)cc1	107.6
CC(Oc1cccc(Cl)c1)C(=O)N1CCCC1 (centres undefined)	106.9
Cc1ccc(N=Cc2ccc3ccccc3n2)cc1	101.3
CC(=O)N1c2ccccc2C(=O)C1Sc1nc(C)cc(-c2ccccc2)n1 (centres undefined)	97.6
CN1CCc2nc3sc(C(=O)NC(C)(C)C)c(N)c3cc2C1	99.1
CCn1c(=NC(=O)c2cccs2)sc2cc(Cl)ccc21	109.0
CC(C(N)=O)N1C(=O)c2ccccc2C1=O (centres undefined)	98.9
NNC(=O)CN1C(c2ccc(Cl)cc2)=Nc2ccc(Cl)cc2C1c1ccccc1 (centres undefined)	100.3
CC(C)CC(C(=O)O)N1Cc2ccccc2C1=O (centres undefined)	108.3
CC(C)N(C(=O)CNc1cc(Cl)ccc1Cl)c1ccccc1	98.7
COc1ccc(CCNC(=O)CSc2ccccn2)cc1	98.7
c1ccc(Nc2cnccn2)cc1	101.4
CCOC(=O)Cn1c(C)c(Sc2ccccc2)c2ccccc21	99.8

By substructure, the compounds so far with an NH in an aromatic ring (two)
SMILES	VACV E9 pol inh
CC1=CS(=O)(=O)CC1Sc1n[nH]c(C)n1 (centres undefined)	98.1
COCC(=O)NC(C)c1nc2ccccc2[nH]1 (centres undefined)	90.8

The list continues.
SMILES	VACV E9 pol inh
O=C1CCN(S(=O)(=O)c2cccc(S(=O)(=O)c3ccc(Cl)cc3)c2)C2CCCCC12 (centres undefined)	100.7
CCSc1nc2ncnc(N)c2[nH]1	100.1
Cc1oc2ccccc2c1CNC(N)=O	97.0
O=C1CC(c2ccccc2)=NN1	98.8
NCCN1C(=O)CSC1=O	99.6
O=C(c1ccc(Cl)cc1)N(Cc1ccc(Cl)cc1)C1CCS(=O)(=O)C1 (centres undefined)	91.3
C=CC1CN2CCC1CC2[C@@H](OC(=O)c1ccc(OC)cc1)c1ccnc2ccccc12 (some centres undefined)	100.2
CCN(Cc1ccccc1)C(=O)Cn1cc2c(n1)-c1c(oc(C(=O)N3CCCC3)c1C)CC2	102.3
CCC(C)NC(=O)c1sc2nc(C)nc(N(C)c3ccc(C(C)C)cc3)c2c1C (centres undefined)	98.9
Cn1cc(C(=O)NCc2cccs2)c(=O)c2cc(S(=O)(=O)N3CCOCC3)ccc21	103.3
CC1=C(C)C(=O)N(c2ccc(C(=O)O)cc2)C1=O	104.2
CCn1c(SCc2ccccc2)nnc1-c1ccncc1	101.2
COc1cc2cc3c4c(cc(OC)c(OC)c4c2cc1OC)CCN3C	65.7*
O=C(c1cc(C2CC2)on1)N1CCN(c2ccccc2)CC1	100.6
CC1CC(C)CN(S(=O)(=O)c2ccc(Cl)cc2)C1 (centres undefined)	100.4
Cc1ccc2nc(NC(=O)C(Cc3ccccc3)n3cccc3)sc2c1 (centres undefined)	103.0
COc1ccc2[nH]c(C(=O)N3CCC(Cc4ccccc4)CC3)cc2c1	98.3
Cc1cc2nc(SCC(=O)C(C)(C)C)[nH]c2cc1C	75.5
O=C1CC(c2ccccc2)n2nc(NC(=O)c3ccco3)nc2N1 (centres undefined)	100.0
CCN(CC)c1ccc2c(N3CCCCC3)cc(=O)oc2c1	90.0
O=C(Cn1cc2c(n1)CCCC2)NC1CCCC1	102.3
Oc1ccccc1/C=N/c1ncn[nH]1	100.2&98.7
CCc1ccc(OCC(=O)C(C#N)c2nc3ccccc3[nH]2)cc1 (centres undefined)	103.2
Cc1nn(-c2cc(N3CCCCC3)ccc2N)c(=O)c2ccccc12	98.5
O=C(O)/C=C/C(=O)Nc1ccc(N2CCOCC2)nc1N1CCOCC1	100.8
COc1ccccc1OCC(=O)Nc1cccc(Cl)c1Cl	105.0
Cc1nnc(SCc2ccc(F)cc2Cl)c2cc3occc3n12	71.7*
CN(C)S(=O)(=O)c1ccc(C(=O)Nc2nccs2)cc1	96.9
Cn1c(COc2ccccc2)n[nH]c1=S	100.5
Cc1[nH]c2ccccc2c1C(O)c1cccnc1 (centres undefined)	103.8
O=C1CCC(=O)N1CNc1cccc(Cl)c1	97.6
CN(Cc1ccccc1)C(=O)COc1cccc2ccccc12	95.3
COc1ccc(-c2nnsc2N2C(=O)c3ccccc3C2=O)cc1	103.1
CCOc1cccc(NC(=O)c2ccc(S(=O)(=O)N3CCCCCC3)cc2)c1	115.9
O=C(Nc1ccccc1)Nc1sccc1-c1nc2ccccc2s1	91.7
O=c1[nH]c(SCc2ccccc2Cl)nc2c1cnn2-c1ccccc1	97.3
O=S(=O)(c1ccc(O)c(N=Cc2ccccc2O)c1)C(F)(F)F	100.9
COc1ccccc1C1CC(=O)N2CN(C3CCCCC3)CSC2=C1C#N (centres undefined)	98.6
CC(NC(=O)CCCn1c(=O)[nH]c2ccsc2c1=O)C12CC3CC(CC(C3)C1)C2 (centres undefined)	100.6
NC(=O)COc1ncnc2ccccc12	102.4
COc1ccc(C(=O)Nc2sc3c(c2C(=O)NCc2cccnc2)CCCC3)cc1	102.2
Nc1sc2ccccc2[n+]1CC(=O)c1ccccc1	81.2
O=C(O)/C(=C/C(=O)c1ccccc1)Nc1ccc(OC(F)(F)F)cc1	97.6
Cc1ccc(C)c(N2CCN(S(=O)(=O)c3ccc4c(c3)CCN4C(=O)CCC(=O)O)CC2)c1	98.5
CC(C)N1C(=O)CC(Nc2ccc(N3CCOCC3)cc2)C1=O (centres undefined)	90.6
CCSC1=NCN(Cc2cccs2)CN1	82.0
CCCC(=O)NCCc1cc2c(OC)ccc(OC)c2[nH]c1=O	101.8
Cn1c(-c2ccc(Cl)cc2)[n+](C)c2ccccc21	99.9

Grouped by structure: those above containing a furan ring, fused or not
SMILES	VACV E9 pol inh
O=C(Oc1ccc(Cl)c2cccnc12)c1ccco1	101.3
Cc1oc2ccccc2c1CNC(N)=O	97.0
CCN(Cc1ccccc1)C(=O)Cn1cc2c(n1)-c1c(oc(C(=O)N3CCCC3)c1C)CC2	102.3
O=C1CC(c2ccccc2)n2nc(NC(=O)c3ccco3)nc2N1 (centres undefined)	100.0
Cc1nnc(SCc2ccc(F)cc2Cl)c2cc3occc3n12	71.7*

The list goes on:
SMILES	VACV E9 pol inh
CC(C)(C)C(=O)NC12CC3CC(CC(C3)C1)C2	102.2
CCOC(=O)/C(=N/O)C1=NC2(C)CCCCC2c2ccccc21 (centres undefined)	99.3
CCc1ccc(-c2nn(-c3ccccc3)cc2/C=N\O)cc1	102.9
COc1ccc2c(c1)c(C(=O)ON1C(=O)CCC1=O)c(C)n2C1CC1	100.4
COc1cc(CN2CCCC(C(=O)N3CCCCCC3)C2)ccc1OCc1ccccc1 (centres undefined)	100.6
Cc1nc(/N=C(\N)NC(=O)Nc2ccc(Cl)cc2)sc1Br	100.4
COc1ccc2c(Sc3ccc(C)cc3)c(C(=O)NCCc3ccc(OC)c(OC)c3)[nH]c2c1	101.7
Cc1sc2c(c1C)c(=O)nc1n2C(c2ccccc2)C=CS1 (centres undefined)	101.0
O=C(CCNS(=O)(=O)c1cccc2nsnc12)NC1CCCC1	95.3
CCOC(=O)c1nc(C)sc1-c1ccnn1S(=O)(=O)c1ccccc1C(F)(F)F	99.7
NC(=O)CSc1ccc(-c2ccncc2)nn1	101.5
O=C(NCCc1ccccc1)c1cc2ccccc2nc1Cl	88.7
CN(Cc1ccccc1)C(=O)CNc1ccc(Br)cc1	102.2
Cc1cc2nc(NC3=NC(O)C=C(CSc4nc5ccccc5[nH]4)N3)nc(C)c2cc1C (centres undefined)	99.9
COC(=O)c1c(C)nc(C)c(C(=O)OC)c1-c1csc(S(=O)(=O)/N=C/N(C)C)c1	97.8
CCc1ccc(Nc2c3c(nc4ccccc24)CCC3)cc1	85.8
NS(=O)(=O)c1ccc(N2C(=O)C3CC=CCC3C2=O)cc1 (centres undefined)	100.7
O=C(Nc1ccc2cn[nH]c2c1)c1ccc(C(F)(F)F)cc1	102.4
COC(=O)c1sc(=Nc2ccccc2)n(-c2ccccc2)c1C	100.5
O=C(O)CNC(=O)COc1cccc(Br)c1	95.6
COc1ccc(Br)cc1/C=C/C(=O)O	96.0
CCC(C)NC(=O)Cn1c(=O)n(CCc2ccccc2)c(=O)c2c3c(sc21)CCCC3 (centres undefined)	96.2
Cn1cc(NC(=O)N(Cc2ccco2)CC2CCCO2)c2ccccc2c1=O (centres undefined)	96.5
CCOC(=O)c1c(C)cc(C)n2c1nc1ccccc12	88.2
Cc1nc(S(=O)(=O)NC2CCS(=O)(=O)C2)cn1C (centres undefined)	86.8
CC1=NN(C(=O)c2ccccc2)C(O)(C(F)(F)F)C1 (centres undefined)	100.0
N#CC1=C(SCc2ccccc2)SC(c2ccc(C(=O)O)cc2)NC1=O (centres undefined)	59.8*
O=C(Cn1ccc2ccccc2c1=O)NCC(=O)N1CCCCC1	105.3
COC(=O)CN1C(=O)COc2cc(S(=O)(=O)N3CCCCC3)ccc21	100.5
Cn1c(CSc2cc(C(F)(F)F)nc3ccccc23)nnc1SCC(=O)c1ccccc1	102.1
O=C(NCCc1nc2ccccc2n1Cc1ccccc1)c1ccccc1	100.1
Cc1ccc(C(=O)N2CCCCC2)cc1	99.7
COC(=O)CSc1nnc(-c2ccc(OC)cc2)o1	100.0
COc1ccc(-c2nc(N)n(C(=O)CCc3ccccc3)n2)cc1	99.8
Nc1ccccc1C(=O)NC1CCCCNC1=O (centres undefined)	105.1
CCC(=Nc1ccccc1)C1=C(O)CCCC1=O	95.0

Laid out differently: 4 of the compounds above
> Oc1ccccc1/C=N/c1ncn[nH]1
- VACV E9 pol inh: 100.2&98.7
> CCc1ccc(OCC(=O)C(C#N)c2nc3ccccc3[nH]2)cc1 (centres undefined)
- VACV E9 pol inh: 103.2
> Cc1nn(-c2cc(N3CCCCC3)ccc2N)c(=O)c2ccccc12
- VACV E9 pol inh: 98.5
> O=C(O)/C=C/C(=O)Nc1ccc(N2CCOCC2)nc1N1CCOCC1
- VACV E9 pol inh: 100.8

The results go on:
SMILES	VACV E9 pol inh
O=C1c2ccc(Br)cc2C(=O)N1C(c1ccccc1)c1ccccc1	92.6
Cc1ccc(C(=O)CBr)cc1C	100.2
CN(CCNc1ncnc2nc[nH]c12)Cc1ccccc1	100.0
CC(=O)N(c1ccccc1)C(C)C1CC1 (centres undefined)	107.7
COc1ccc(C(=O)Nc2nc(-c3ccncc3)cs2)cc1	101.3
Cc1ccn2cc(C(C)(C)C)nc2c1	108.3
CN(Cc1ccccc1)C(=O)CSc1nc2c(c(C(F)(F)F)n1)CCc1ccccc1-2	108.6
CN(C)C(=O)c1ccccc1NC(=O)c1ccco1	104.3
O=C(CNS(=O)(=O)c1ccc(Br)s1)NCc1ccccc1	101.8
COc1ccc(C(=O)[C@@H]2[C@@H](c3ccccc3F)C(C#N)(C#N)[C@H]3C=Cc4ccccc4N23)cc1	99.7
CCn1c(=O)c2cc(C(=O)NC3CCCC3)sc2c2ccccc21	76.8
CCn1c(-c2nonc2N)nc2ccccc21	99.4
O=c1c(=O)n2c(nn1Cc1ccc(F)cc1)sc1ccccc12	96.6
CC(C)(C)c1nc2ccccc2c(=O)n1-c1ccc(F)cc1F	99.5
C=CCN(CC=C)S(=O)(=O)Cc1ccccc1	96.8
CCc1ccc(NC(=O)C2CCN(S(=O)(=O)c3c(C)[nH]c(=O)[nH]c3=O)CC2)cc1	100.1
